Mtb hypoxia inh – Mtb hypoxia fluorescent reporter inhibition. M. tuberculosis hypoxia-regulated fluorescent reporter, fluorescence. fluorescence inhibition, % (no concentration beside the values). 300,000 tested, 0.1% active. AID 1159583;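 active means 35 to 45% if threefold the growth effect, above 45% if 1.5-fold the growth effect; inactive means the rest, general growth blockers included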;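 further: wells of about 50 µL received 100 nL stock; 0% = vehicle wells and 100% = reference inhibitor wells; whole bacteria with a GFP reporter of the hypoxia response; strong numbers were not always called active; many hits fall short of the cut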
BJeLR lethal – kills HRASV12-expressing BJeLR cells | 300,000 tested, 0.17% active | AID 1554 | inhibition, % (concentration not given with the values) | BJeLR (HRASV12) viability, CellTiter-Glo ATP luminescence, 48 h; reference of the scale not given here;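 active means replicate mean above 50%; inconclusive means above 50% but judged a plate artefact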;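 further: 50 nL library stock added to about 25 µL; numbers are from one replicate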
ugtP null kill – growth inhibition of S. aureus ugtP deletion strain | growth inhibition, % (concentration not given with the values) | S. aureus RN4220 ugtP deletion, OD600 growth, 16 h; some inactives read as strong as hits | 330,000 tested, 0.54% active;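 active means z-score under -3 and OD600 up to 0.15 on both plates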;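 further: plate controls were untreated wells for no effect and antibiotic for full effect; wells of about 80 µL received 100 nL stock; the first replicate is given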
Bead autofluor – flagged as autofluorescent in microsphere protease counterscreen | compound autofluorescence counterscreen, microsphere flow cytometry; hits give high values | 360,000 tested, 3.1% active | fluorescence intensity (test concentration not listed) | AID 624483;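 active means at least 3 SD above the mean of all compounds, about 16000 in these data; inconclusive means too few beads counted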;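 further: 100 nL of 1 mM stock went into each well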
Sa RN4220 lethal – S. aureus RN4220 growth inhibition. OD600, 16 h. inhibition, % (concentration not given with the values). 330,000 tested, 0.33% active. AID 1259311;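 active means z-score of -3 or lower and OD600 up to 0.18 on both plates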;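 further: plate controls were untreated cells for no effect and reference antibiotic for full effect; stock transfer was 100 nL into about 80 µL; one replicate is shown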
PrP UTR inh – suppresses PrP 5' UTR mRNA reporter expression; cell-based PrP 5' UTR mRNA reporter, plate reader; inhibition, % (concentration not given with the values); 340,000 tested, 0.35% active; AID 488862;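 active means every replicate at 50% or more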;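 further: 0 = median of the neutral control wells; tested in H4 reporter cells; numbers are from one replicate; inactives centre near -14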
Mtb hypoxia inh growth – second read-out of Mtb hypoxia inh, no call of its own (marks repeat the call); growth inhibition, %; measured here: M. tuberculosis growth (absorbance);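 0% = vehicle and 100% = reference antibiotic; read after six days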
Numbers without * were called inactive; u = inconclusive; x = not tested or not shown.

Values in the order – Mtb hypoxia inh	Mtb hypoxia inh growth	BJeLR lethal	ugtP null kill	Bead autofluor	Sa RN4220 lethal	PrP UTR inh
- O=C(CSc1n[nH]c(-c2ccncc2)n1)Nc1ccccc1Cl
→ 7	1	-7	4	6103	1.4	-12
- Nc1nc(C(=O)N2CCOCC2)nn1S(=O)(=O)c1ccc(Cl)cc1
→ 0	5	1	10	3093	8.5	-19
- CC(C)C(=O)Nc1ncc2c(n1)CC(c1cccs1)CC2=O (centres undefined)
→ 5	5	0	6	2496	5.9	-4
- O=C(OCc1cccc(F)c1)c1ccc2c(=O)n3c(nc2c1)CCC3
→ 0	-5	12	-4	3483	-0.6	-33
- O=C(CCCNS(=O)(=O)c1cccs1)N1CCc2ccccc2C1
→ 0	-17	-11	-2	4429	-4.0	-28
- CC(C)c1ccccc1
→ 7	11	x	4	5052	6.0	-8
- CC1CCCC(C)N1C(=O)COC(=O)c1cccs1 (centres undefined)
→ 5	-1	x	9	3435	2.0	-3
- COc1ccccc1C(=O)NNC(=O)c1csc(N2CCOCC2)n1
→ 6	-1	8	-5	5526	3.8	-12
- O=C(NNC(=O)c1ccccc1-c1ccccc1C(=O)O)c1cccc([N+](=O)[O-])c1
→ x	x	-2	x	8885	x	-3
- COC(=O)[C@@H](Cc1c[nH]c2ccccc12)NC(=O)CCC(=O)c1ccc(Br)cc1
→ -13	-7	-2	-3	3794	1.7	-7
- COc1cccc(CNC(=O)C2CCCN(S(C)(=O)=O)C2)c1 (centres undefined)
→ 5	-3	9	14	7006	1.6	-18
- COc1ccc(C(=N/O)/C(=N/O)c2ccc(OC)cc2)cc1
→ x	x	3	x	9733	x	-1
- CC1=CC[C@@]23CCCN2C(=O)CCC[C@H]3C1
→ 4	4	x	8	3486	2.5	-8
- O=C(O)C=Cc1cccc(OCc2ccccc2)c1
→ 12	4	x	2	x	10.0	x
- COc1cc(-c2n[nH]c(=S)n2Cc2ccccc2)cc(OC)c1OC
→ 4	-3	-6	1	5786	2.8	-22

The listing continues.
Values in the order – Mtb hypoxia inh	Mtb hypoxia inh growth	BJeLR lethal	ugtP null kill	Bead autofluor	Sa RN4220 lethal	PrP UTR inh
- Cn1c(C=O)c(C#CC(C)(C)O)c2ccccc21
→ 14	7	x	-1	4072	-7.1	-11
- O=C(c1ccc(N2CCCC2)c([N+](=O)[O-])c1)N1CCN(S(=O)(=O)c2ccccc2)CC1
→ -1	4	x	4	u	2.6	-7
- COc1cccc(C(c2sc3ncnn3c2O)N2CCc3ccccc3C2)c1 (centres undefined)
→ 5	8	-6	-7	6130	-1.5	-51
- O=C(COc1cccc(C(F)(F)F)c1)NNC(=O)c1ccc(=O)[nH]c1
→ 0	1	x	4	3410	4.6	65*
- Cc1ccc(-n2c(O)c(/C=N/N3CCCCCC3)c(=O)[nH]c2=O)cc1C
→ 12	1	2	-1	5905	3.2	x
- CC(Sc1nc(N)cc(N)n1)C(=O)Nc1ccc(N2CCOCC2)cc1 (centres undefined)
→ 2	-2	x	-4	6382	2.2	-2
- CS(=O)(=O)NCCNc1ccc(Cl)cc1[N+](=O)[O-]
→ 12	8	1	2	2252	5.0	-25
- O=c1c(Br)c(N2CCCCC2)cnn1-c1ccccc1
→ -3	-2	-4	9	5171	4.9	-97
- COc1ccccc1C(=O)C1CCCN(C(=O)c2cccc(Cn3cccn3)c2)C1 (centres undefined)
→ 10	6	6	7	6031	3.8	-16
- COC(=O)C1(C(=O)OC)NOC2C(=O)N(N(C)c3ncc(C(F)(F)F)cc3Cl)C(=O)C21 (centres undefined)
→ 2	0	-1	4	4959	2.2	-18
- COC(CC(=O)NNC(=S)Nc1ccc(Cl)cc1)OC
→ 1	0	1	4	1915	0.2	12
- Cc1ccnc2nc(C(=O)OCC(=O)N(Cc3ccccc3)C(C)(C)C)nn12
→ 5	5	x	3	x	1.3	-15
- CN(C)c1ccc(C2CC(=O)NC3=C2C(=O)CC(C)(C)C3)cc1 (centres undefined)
→ 1	7	-11	0	8786	4.1	-14
- O=C(c1ccc(N2CCN(CCO)CC2)nc1)N1CCOCC1
→ 4	-11	-1	8	2007	5.1	-19
- CCCCN(CCCC)C(=O)c1cc(Cl)ccc1[N+](=O)[O-]
→ 0	-2	-9	3	1678	-0.6	1

Further compounds.
Values in the order – Mtb hypoxia inh	Mtb hypoxia inh growth	BJeLR lethal	ugtP null kill	Bead autofluor	Sa RN4220 lethal	PrP UTR inh
- COCCN(CCOC)C(=O)c1ccc(NS(=O)(=O)c2ccc3c(c2)OCCO3)cc1
→ 9	8	2	0	6274	1.4	-16
- NC(=O)CN1C(=O)C(O)(CC(=O)/C=C\c2ccc3c(c2)OCO3)c2ccccc21 (centres undefined)
→ 4	8	3	2	4588	5.3	-5
- N/C(=N\OC(=O)c1ccc(Cl)cc1[N+](=O)[O-])c1ccccn1
→ x	x	-4	x	2827	x	-14
- COc1ccc(CC(=O)Nc2ccc(S(=O)(=O)Nc3cc(OC)nc(OC)n3)cc2)cc1
→ 6	3	-4	4	2926	1.9	8
- CCN(CC(=O)Nc1ccc(NC(C)=O)cc1)C(=O)/C=C/c1cn(-c2ccccc2)nc1-c1ccc(C)cc1
→ 4	-1	4	10	6142	3.9	4
- Cc1nn(CC(=O)N2CCCC2)c(=O)c2cc3cc(F)ccc3n12
→ 15	3	-1	3	6095	1.1	-16
- C=CCN(c1ccccc1)S(=O)(=O)c1cccc(C(=O)NCc2ccco2)c1
→ 2	-11	x	4	8914	2.3	-14
- O=C(COC(=O)/C=C/c1ccco1)Nc1ccccc1
→ 9	7	-15	-2	4135	3.8	-20
- CS(=O)(=O)N(CC(=O)NCc1ccc2c(c1)OCO2)c1ccccc1
→ 8	10	-5	-5	3622	0.6	-20
- Cc1cc(C(=O)CN2C(=O)C(=O)N(C3CCCC3)C2=O)c(C)n1-c1ccc(F)cc1
→ 0	6	4	4	4146	21	-12
- Cc1onc(-c2c(Cl)cccc2Cl)c1C(=O)NC(=S)N1CCOCC1
→ 3	13	4	-2	x	3.8	-4
- CCC(C(=O)OCCN(CC)CC)c1ccccc1 (centres undefined)
→ 1	4	-17	-3	6154	2.1	-6
- O=C(N/N=C/c1ccco1)c1cccc(NC(=O)c2cccc(Cl)c2)c1
→ x	x	-11	x	4343	x	15
- Cc1cccc(CN2CCN(CC(=O)O)C2=O)c1
→ 5	5	4	1	19589*	-1.3	-6
- C=CCNC(=O)C1CCN(S(=O)(=O)c2cccs2)CC1
→ -5	5	1	1	5552	-0.3	-12

New compounds follow.
Values in the order – Mtb hypoxia inh	Mtb hypoxia inh growth	BJeLR lethal	ugtP null kill	Bead autofluor	Sa RN4220 lethal	PrP UTR inh
- OC(COCC1COc2ccccc2O1)CN1CCCCC1 (centres undefined)
→ 6	2	-14	0	2179	4.7	-13
- Cc1ccc2c(CN(C)Cc3ccc(OC(F)F)cc3)cc(=O)oc2c1C
→ 1	2	-11	10	3493	2.9	-10
- Fc1ccc(CCNCc2ccc(Cl)c(Cl)c2)cc1
→ 1	-1	-15	-19	7236	-1.0	-7
- S=c1[nH]nc(-c2ccncc2)n1/N=C/C=C/c1ccccc1
→ x	x	6	x	4556	x	-72
- Cc1ccc(C2(c3ccc(C)cc3)CC2C(=O)NCc2cccnc2)cc1 (centres undefined)
→ 2	-4	-20	-5	4442	-4.6	-17
- O=C(N/N=C1\CCCc2ccccc21)c1ccc([N+](=O)[O-])cc1Cl
→ x	x	-7	x	3434	x	-2
- Cc1cc(SCC(=O)N(C)C2CCS(=O)(=O)C2)nc2c(C)cccc12 (centres undefined)
→ 14	3	2	8	4617	1.7	-14
- CC(=O)Nc1ccc(NC(=S)NC(=O)c2cc3ccccc3o2)cc1
→ 9	-4	18	38	2720	4.0	-17
- O=C(Nc1ccc(Oc2cccc(C(F)(F)F)c2)nc1)c1ccccc1
→ -7	-2	8	2	5998	-4.7	-4
- CCOc1ccc(N(C)S(=O)(=O)c2cc(-c3cc(C)no3)ccc2OC)cc1
→ 7	6	-7	11	4622	4.8	-19
- O=C(c1cc(-c2cccc(Cl)c2)nc2ccccc12)N1CCN(c2ccccn2)CC1
→ -1	-1	-3	-11	5793	0.9	-16
- O=[N+]([O-])c1cccc(CN2C[C@@]34C=C[C@@H](C[C@@H]3S2(=O)=O)O4)c1
→ x	x	6	x	3490	x	-23
- CCN(C[C@H]1N[C@@](CC)(C(=O)OC)[C@H]2C(=O)N(C)C(=O)[C@@H]12)C(=O)c1ccccc1
→ -9	2	x	-3	3850	2.0	3
- COC(=O)C1=C(c2ccc(OC)c(OC)c2)CC2CCC1N2C(=O)NCCOc1ccccc1Cl (centres undefined)
→ 2	6	x	-1	x	4.5	x
- C/C(CC(=O)Nc1ccccc1Br)=N\NC(=O)C(=O)N1CCCC1
→ x	x	4	x	3813	x	-27

Given as a markdown table: entries from further up.
| molecule | Mtb hypoxia inh | Mtb hypoxia inh growth | BJeLR lethal | ugtP null kill | Bead autofluor | Sa RN4220 lethal | PrP UTR inh |
| --- | --- | --- | --- | --- | --- | --- | --- |
| CC(C)c1ccccc1 | 7 | 11 | x | 4 | 5052 | 6.0 | -8 |
| CC1CCCC(C)N1C(=O)COC(=O)c1cccs1 (centres undefined) | 5 | -1 | x | 9 | 3435 | 2.0 | -3 |

Following part:
Values in the order – Mtb hypoxia inh	Mtb hypoxia inh growth	BJeLR lethal	ugtP null kill	Bead autofluor	Sa RN4220 lethal	PrP UTR inh
- Cc1nc2ccc(S(=O)(=O)NCC(=O)N3CCC(C)CC3)cc2s1
→ 3	5	8	0	2411	5.9	-7
- O=C(Nc1nc2c(s1)CCc1ccccc1-2)c1ccco1
→ 4	7	-2	0	u	22	-62
- COC(=O)C1=C(C)N(Cc2ccccc2)C(=O)/C1=C\c1ccco1
→ -3	-4	-5	-7	5930	-4.1	-23
- CC(=O)Nc1ccccc1-c1nc2ccccc2nc1OCC(=O)c1ccc(Cl)cc1
→ -5	8	1	-7	2108	2.5	-25
- COc1cccc(CNC(=O)c2cc(S(=O)(=O)N3CCCC3)cn2C)c1
→ -3	4	0	-3	6510	3.7	-16
- O=C(c1ccc(Br)cc1)N1CCN(Cc2ccccc2)CC1
→ 20	8	0	7	4007	3.7	-8
- COCCN(CC(=O)NC1CCCCC1)C(=O)CCCC(=O)Nc1ccccn1
→ 16	0	-3	7	2637	4.8	-24
- CC(NC(=O)C(=O)N1CCOCC1)C(c1cccs1)N1CCN(c2ccccc2)CC1 (centres undefined)
→ 9	-1	-6	12	4535	6.2	-14
- O=C(Nc1ccc2c(c1)OCO2)Nc1ccc2c(c1)OCO2
→ 6	3	12	-9	1998	3.3	-46
- NS(=O)(=O)c1ccc(NC(=O)COC(=O)CCCN2C(=O)c3cccc4cccc(c34)C2=O)cc1
→ 17	10	x	7	3450	3.6	-33
- CCOC(=O)N1CCN(Cc2cc(=O)oc3cc4c(cc23)CCC4)CC1
→ 8	13	2	-1	3365	1.4	-2
- Cc1ccc(-c2cc3nc(-c4ccccc4)cc(N)n3n2)cc1
→ x	x	-2	1	5517	-5.8	-80
- CCc1ccc(C2CC(c3ccc(C)cc3)Nc3nc(N)nn32)cc1 (centres undefined)
→ x	x	-2	13	5089	3.9	-7
- CC(=NNC(=O)CN(c1ccccc1)S(C)(=O)=O)c1ccccc1O
→ -3	6	x	-5	x	-5.5	x
- CCOC1OC(C(N)=O)=CC(c2ccc(C(F)(F)F)cc2)C1CCCO (centres undefined)
→ 6	8	x	-14	x	2.7	x
- O=C(Cc1cccc(C(F)(F)F)c1)N1CCCC1
→ x	x	0	7	3485	-3.7	-13
- CC(C)(C)c1ccc(C(=O)N/C(=C/c2cccs2)C(=O)NCc2ccco2)cc1
→ -5	-3	-16	2	2538	1.6	3

Screening data deposited in PubChem by several laboratories.

Compounds were not picked by outcome; about 4% have a hit in one of these screens.
